# Rango-impB inh = inhibitors of Rango-importin beta complex formation; Q14974; Rango CFP/YFP FRET sensor + importin beta, 45 min; Potency, µM (top dose mostly 92.2 µM), for the others: at the top dose inhibition of complex formation; actives 0.031% (n = 340,000); AID 540263; active = rising FRET ratio curve, often small or poorly fitted; inconclusive = mostly compound fluorescence or quenching in the first reads; inactive = flat curves in all reads;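 further: potency means the concentration at half of the fitted maximal effect; 0% = DMSO wells and 100% = buffer wells lacking importin beta; nearly all actives have a fitted effect of over 15% in size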
# Target sequence (Q14974 whole entry, looked up): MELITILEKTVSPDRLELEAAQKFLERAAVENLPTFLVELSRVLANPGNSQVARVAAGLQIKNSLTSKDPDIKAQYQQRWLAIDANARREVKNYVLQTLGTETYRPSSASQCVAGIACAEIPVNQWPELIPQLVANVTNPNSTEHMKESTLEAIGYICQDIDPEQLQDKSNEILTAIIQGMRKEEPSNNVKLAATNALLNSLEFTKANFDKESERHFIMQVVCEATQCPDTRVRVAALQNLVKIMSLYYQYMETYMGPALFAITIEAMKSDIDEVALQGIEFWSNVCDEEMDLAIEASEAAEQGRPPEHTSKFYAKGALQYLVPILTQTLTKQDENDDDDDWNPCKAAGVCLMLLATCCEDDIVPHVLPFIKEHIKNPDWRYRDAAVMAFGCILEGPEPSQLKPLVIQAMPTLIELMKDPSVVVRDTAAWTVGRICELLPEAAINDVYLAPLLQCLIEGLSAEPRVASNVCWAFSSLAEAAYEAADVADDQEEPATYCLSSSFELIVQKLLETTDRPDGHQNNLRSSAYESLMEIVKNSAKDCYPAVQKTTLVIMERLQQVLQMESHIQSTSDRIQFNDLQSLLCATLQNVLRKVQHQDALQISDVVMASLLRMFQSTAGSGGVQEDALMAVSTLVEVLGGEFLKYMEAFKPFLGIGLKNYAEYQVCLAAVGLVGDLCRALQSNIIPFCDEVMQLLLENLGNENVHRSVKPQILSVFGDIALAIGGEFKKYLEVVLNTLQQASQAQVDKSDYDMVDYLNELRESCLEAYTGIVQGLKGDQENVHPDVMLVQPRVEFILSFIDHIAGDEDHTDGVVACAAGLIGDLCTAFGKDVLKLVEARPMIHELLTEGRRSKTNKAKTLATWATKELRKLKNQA
#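 Inhibition scored from the CFP 486 nm/YFP 530 nm FRET ratio 45 min after adding 0.125 microM importin beta to 50 nM Rango biosensor preincubated 5 min with compound (room temperature, PBS with DTT, Tween-20, BSA). No-importin wells as positive control.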
# miR-21 reporter = miR-21 reporter, rising signal | HeLa miR-21 FLuc reporter, luciferase, 48 h | Potency, µM (titrated, usually from 38.3 µM), for inactives: top-dose reporter change, positive = more light | 340,000 tested, under 10 active | AID 2288; active = well fitted rising curve with a large enough effect; inconclusive = small, poorly fitted or top-dose-only effect; inactive = no such curve, though single readings can be large or run the other way;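 further: % of control where 0% means no effect; miR-21 action dims this reporter so a rising signal means less miR-21 action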
#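 HeLa miR-21-FLuc reporter line, endogenous miR-21; 2000 cells/well in DMEM/10% FBS; compound titration up to ~40uM final, 48 h, 37 degree Celsius; luciferase detection reagent, 15 min lysis, CCD luminescence.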
# GLA inh pH 4.5 = alpha-galactosidase A (human) inhibition, pH 4.5. purified enzyme, 4-MU-alpha-Gal fluorescence, pH 4.5. 230,000 tested, under 10 active. activity change, negative = inhibition, % at 105 µM. P06280; inconclusive = small, poorly fitted or top-dose-only inhibition, or a rising curve; inactive = flat fitted curve, though single readings scatter; no compound was filed as active;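 further: 0% = full activity with enzyme and -100% = basal without enzyme; dose as in the result columns while the protocol names 77 µM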
# Rango release inh = prevents RanGTP from dissociating the Rango-importin beta complex. O95149+P62826. Biochemical FRET Rango-importin beta, RanGTP-induced dissociation. Potency, µM (series often up to 46.1 µM), without a hit: top-dose activity change, negative = inhibition. actives 0.071% (n = 340,000). AID 540253; active means falling FRET ratio curve, often poorly fitted, with flat reads before Ran was added; inconclusive means other falling curves, or compound fluorescence or quenching; inactive means flat or rising ratio curve;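 further: potency means the concentration at half of the fitted maximal effect; % of control where 0% means no effect; nearly all actives have a fitted effect of over 45% in size; -100% = wells without RanGTP and RCC1; the record marks most hits as doubtful in a second field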
#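 Rango (0.1 uM)–importin beta (0.25 uM) complex; RanGTP-RCC1 trigger; 45 min RT; CFP/YFP FRET read.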
# Numbers without * were called inactive; ? = inconclusive; nt = no result given; & = joins results of further samples. The list is partial; the hit share may differ from the screen's.
molecule	Rango-impB inh	miR-21 reporter	GLA inh pH 4.5	Rango release inh
Cc1ccc(NC(=O)c2cc(S(=O)(=O)N3CCCC3)cn2C)cc1C	-0.9%	-2%	nt	1%
CC(C)CN(CC(C)C)S(=O)(=O)N1CCC(C(=O)NCc2ccc3c(c2)OCO3)CC1	-3.5%	9%	-18	7%
COc1cccc(CN(C)CCCn2cnc(C(=O)Nc3ccc(C)c(C)c3)n2)c1	-0.8%	nt	nt	-18%
Cc1ccc(-c2nc(C#N)c(N3CCC(C(N)=O)CC3)o2)cc1	?	0%	nt	11%
O=C(NCCC(=O)N(CCc1ccccc1)Cc1ccccc1)c1ccccc1Cl	4.4%	nt	nt	0%
COc1ccc(C(O)C(CN2CCOCC2)c2ccccc2)cc1F (stereo unspecified)	2.3%	-2%	-8	-12%
COc1ccc(CNC(=O)CCN2C(=S)NC(C)(C)CC2C)cc1 (stereo unspecified)	-5.4%	-1%	-1	-2%
Cc1noc(C)c1CSc1nc2ccccc2c(=O)n1-c1ccc(Cl)cc1	-2.2%	21%	3	2%
CCOC(=O)CCNC(=O)N1CCCC(CNS(=O)(=O)Cc2ccccc2)C1 (stereo unspecified)	2.0%	-1%	14	6%
CN1C(=O)[C@H]2[C@@H](/C=C/c3ccccc3)N3C(=O)CN(CCO)C(=O)[C@@]3(C)[C@H]2C1=O	4.6%	1%	nt	16%
COc1ccc(C(=O)c2oc3ccc(OC)cc3c2NC(C)=O)cc1	-8.4%	2%	4	4%
c1ccc(-c2nc3nc4ccccc4nc3n2CC2CCCO2)cc1 (stereo unspecified)	-1.5%	-8%	29	12%
O=C(NCCCO)c1cc2c(cn1)[nH]c1ccccc12	-1.2%	-44%	nt	-6%
CCc1cc2c(SCC(=O)N(CC)c3c(N)n(Cc4ccccc4)c(=O)[nH]c3=O)ncnc2s1	-7.7%	2%	6	-15%
CC(=O)CCC(=O)OCC(=O)c1ccc(C(F)(F)F)cc1	-3.5%	1%	-4	-7%
CCCCn1ccnc1C(=O)c1ccc(S(=O)(=O)N(CCOC)CCOC)cc1	1.8%	-7%	2	-24%
N/C(=N/OC(=O)c1ccccc1Cl)c1nonc1N	5.7%	-42%	3	16%
Cc1ccc(S(=O)(=O)N2CCC(C(=O)N[C@@H](C)C(=O)NCc3ccccc3)CC2)cc1	0.2%	0%	-15	22%
COc1cccc(NC(=O)c2ccc3c(c2)OCCO3)c1	0.5%	11%	nt	-10%
CN1C(=O)[C@H]2[C@@H](C3CC3)N3C(=O)CN(CC4CC4)C(=O)[C@@]3(C)[C@H]2C1=O	-4.1%	-2%	nt	-24%
CC(C)CCNC(=O)c1onc(CSc2ccncc2)c1C(=O)NCCC(C)C	4.9%	-1%	-7	-10%
COC(=O)c1ccc2c(=O)n(-c3ccc(OC)cc3)c(=S)[nH]c2c1	?	1%	12	-11%
O=C(N1CCOCC1)N1CCN(c2ccccn2)CC1	1.8%	-5%	0	-4%
CN(C)CCCN(Cc1ccccc1)C(=S)Nc1ccc(SC(F)F)cc1	11%	-3%	-12	-6%
COc1cc(CC(NC(C)=O)C(=O)NC2CCN(C(=O)Nc3ccccc3Cl)CC2)cc(OC)c1 (stereo unspecified)	-2.1%	2%	3	-13%
O=C(Nc1ccc(Cl)c(C(F)(F)F)c1)[C@@H]1CC=C[C@@H]2CCN(C3CC3)C(=O)[C@@H]21	3.1%	nt	nt	13%
O=C(O)CCN1CCc2ccccc2C1c1cccs1 (stereo unspecified)	0.7%	-1%	-4	30%
COc1ccc(N(CC(=O)NCCSc2ccccc2)S(=O)(=O)c2ccccc2)c(OC)c1	-0.2%	nt	nt	0%
c1ccc(Nc2nc(N3CCCCC3)nc(N3CCCCC3)n2)cc1	1.1%	-6%	0	13%
O=C(Nc1ccccc1N1CCCCC1)c1ccc(Cl)c([N+](=O)[O-])c1	0.3%	-2%	-12	-3%
COc1cccc(C(C(=O)NC2CCCC2)N(Cc2ccc(C)cc2)C(=O)c2ccco2)c1OC (stereo unspecified)	-0.6%	1%	3	-8%
COc1ccc(Cl)cc1N1C(=O)C2CCCN2C1c1sccc1C (stereo unspecified)	3.2%	-13%	0	9%
COc1ccc([C@H]2CC(=O)C=C(c3c(OC)cccc3OC)C2)cc1	-0.1%	nt	nt	5%
O=C(CCNS(=O)(=O)c1ccccc1C(F)(F)F)N1CCN(c2ccccc2O)CC1	0.2%	nt	nt	-5%
CC(=NN1CC(=O)NC1=O)c1ccc([N+](=O)[O-])o1	0.0%	nt	nt	-6%
CCc1c(C)n([O-])c2c([n+]1=O)CCC2	-0.1%	-5%	3	-4%
CCn1c(SCC(=O)Nc2ccc3c(c2)OCO3)nc2c(c1=O)SC(C)C2 (stereo unspecified)	-0.5%	-1%	2	0%
COc1ccc(C(=O)Nc2cccc(C(C)=O)c2)cc1S(=O)(=O)N1CCOCC1	-4.3%	-1%	0	37%
O=C(CSc1ccc(S(=O)(=O)N2CCCCC2)cn1)Nc1ccccc1Br	-0.7%	nt	nt	14%
Cc1cc(=O)oc(C)c1C(=O)Nc1c(C)n(C)n(-c2ccccc2)c1=O	3.1%	-2%	1	13%
Cc1c(C(=O)O/N=C(\N)c2ccccn2)cccc1[N+](=O)[O-]	4.9%	-33%	2	-15%
Cc1ccc(-n2c(C)cc(C)c(C#N)c2=O)cc1C	3.4%	-2%	-18	-11%
Clc1ccc(Cn2c(CN3CCCC3)nc3ccccc32)cc1	nt	-1%	-4&2	nt
CC(=O)Nc1ccc(S(=O)(=O)NCC(=O)OCc2ccccc2)cc1	-0.8%	-1%	-1	-4%
O=c1nc2ccccc2c(NS(=O)(=O)c2ccc(Cl)cc2)n1-c1ccccc1	-6.7%	-8%	14	-7%
CC(C)Cn1c(N)c(C(=O)COC(=O)C2=COCCO2)c(=O)n(C)c1=O	0.0%	0%	2	1%
CC(=O)NC(CC(=O)NCc1ccncc1)c1ccccc1 (stereo unspecified)	1.6%	-5%	nt	21%
O=c1ccc(C(F)(F)F)cn1Cc1cc(=O)n2ccsc2n1	1.8%	-11%	5	-19%

# 2 records picked at random from those above, as already listed:
molecule	Rango-impB inh	miR-21 reporter	GLA inh pH 4.5	Rango release inh
CC(=O)Nc1ccc(S(=O)(=O)NCC(=O)OCc2ccccc2)cc1	-0.8%	-1%	-1	-4%
O=c1ccc(C(F)(F)F)cn1Cc1cc(=O)n2ccsc2n1	1.8%	-11%	5	-19%

# Other results follow:
molecule	Rango-impB inh	miR-21 reporter	GLA inh pH 4.5	Rango release inh
Cc1ccc(-n2nc3c(=O)n(C(C)C(=O)NCCc4cccs4)nc(C)c3c2C)cc1 (stereo unspecified)	-2.9%	29%	nt	2%
Cc1nn(C)c(C)c1S(=O)(=O)N(CC(=O)Nc1ccc2c(c1)OCO2)c1ccc(C(C)C)cc1	2.8%	1%	-8	-1%
Fc1cccc(Nc2ncnc3[nH]ncc23)c1	-2.7%	-12%	-5	10%
CSc1nc(C(=O)N2CCCC(Nc3ccc(C)c(C)c3)C2)cs1 (stereo unspecified)	-1.5%	-3%	nt	-4%
c1cc(-c2noc(CCC3CCCC3)n2)ccn1	1.3%	-24%	-3	-22%
CC(=O)c1ccc(S(=O)(=O)N(C)CCCC(=O)N(C)Cc2c(F)cccc2Cl)cc1	0.2%	12%	nt	-10%
CCN(CC)C(=O)C(Cc1ccccc1)N1C(=O)c2ccccc2C1=O (stereo unspecified)	0.2%	-4%	4	3%
COc1ccc(-c2csc(N3CCC(C(N)=O)(N4CCCCC4)CC3)n2)cc1	-5.0%	21%	0	-3%
CCOC(=O)C1CCN(C(=O)COc2ccc(N(C)S(=O)(=O)c3cccs3)cc2)CC1	-2.8%	0%	3	10%
O=C(CSc1nnc(Nc2ccccc2F)s1)Nc1cccc(S(=O)(=O)N2CCCCC2)c1	0.4%	-22%	-2	24%
CCCCOc1nc2ccccc2nc1NS(=O)(=O)c1ccc(F)cc1	?	12%	nt	-3%
CCCCC(CC)C(=O)Nc1ccc(C)c(O)c1 (stereo unspecified)	1.7%	-4%	13	1%
O=C(O)c1cccc(S(=O)(=O)N(Cc2ccccc2)c2ccccc2)c1	1.5%	0%	0	2%
CC(C)(C)NC(=O)CCc1ncc(C(F)(F)F)cc1Cl	2.1%	0%	-5	5%
O=C(N/N=C/c1ccccn1)c1cc(C2CC2)[nH]n1	-4.8%	-56%	-4	-20%
CCOc1ccccc1NC(=O)COC(=O)c1ccc2ccccc2n1	-3.1%	nt	nt	-2%
CC(C)(C)OC(=O)NCCCCCNC(=O)c1nc[nH]c1C(=O)NCC(=O)OCc1ccccc1	-4.7%	nt	nt	-16%
O=C(c1ccccc1Br)N1CCc2c([nH]c3ccccc23)C1	-3.5%	-4%	nt	2%
COc1ccc(N2C3=C(C(=O)CC(C)(C)C3)C(c3cnn(C)c3)C3=C2CC(C)(C)CC3=O)cc1	?	-5%	?	?
COc1ccc(OC)c(CCNC(=O)CCn2ccc3cc(S(=O)(=O)N4CCCC4)ccc32)c1	-3.3%	7%	nt	0%
Cc1csc(SCC(=O)Nc2ccc3[nH]c(=O)[nH]c3c2)n1	0.6%	nt	nt	-11%
CCC(C#CCN1CCOCC1)(CC)OCCC#N	-2.5%	-1%	-3	?
CCCCN(C)C(=O)c1cc2cc3cc(OC)ccc3nc2o1	4.2%	-40%	1	15%
COc1ccc(S(=O)(=O)N2CCc3ccccc32)cc1NC(C)=O	-2.6%	18%	-1	28%
Cc1cccc(-c2nc(=S)c3c(n2Cc2ccco2)CCCC3)c1	?	-12%	-6	-7%
O=C(CSCc1cccc(Br)c1)NC1CC1	-1.5%	-15%	0	2%
CCOC(=O)C1CCN(C/C=C/c2ccccc2OC)CC1	-0.9%	-2%	-7	-12%
Cc1sc2nc(C(C)C)oc(=O)c2c1C	0.0%	-1%	1	2%
O=C(CSc1nc2c(c(C(F)(F)F)n1)CCc1ccccc1-2)NCc1ccccc1	-2.0%	-7%	4	0%
O=C(NCCN1C(=O)S/C(=C\c2ccc(Cl)c(Cl)c2)C1=O)c1ccc2c(c1)C(=O)N(Cc1ccncc1)C2=O	3.2%	-8%	5	6%
O=C1CCCN1C(=O)COc1ccccc1[N+](=O)[O-]	8.0%	nt	nt	-9%
O=C(CCN1C(=O)C2CC=CCC2C1=O)Nc1nccs1 (stereo unspecified)	6.4%	0%	nt	-7%
OC1(c2ccc(Cl)cc2)CCN(Cc2c[nH]c3ccccc23)CC1	5.3%	nt	-5&-7	-15%
CCc1nc(SCC(=O)Nc2ccc(F)cc2F)c2c(=O)n(C)c(=O)n(C)c2n1	-2.9%	-1%	nt	-4%
c1ccc(SCCc2ccncc2)cc1	-0.1%	-19%	3	-11%
O=C(Nc1nccs1)c1ccc(N2C(=O)[C@@H]3[C@H](C2=O)[C@H]2C=C[C@@H]3C2)cc1	2.8%	-29%	3	-2%
CC(Oc1ccc(Cl)cc1)C(=O)/C=C/N(C)C (stereo unspecified)	?	-4%	-7	-24%
COC(=O)c1sccc1NC(=O)c1ccco1	0.1%	0%	-3	10%
Cc1cnc(NC(=O)c2c(-c3ccccc3)noc2C)s1	2.8%	17%	3	-17%
COC(=O)c1c(N)sc2c1CCN(c1ncc(C(F)(F)F)cc1Cl)C2	-3.3%	-9%	-2	-4%
Cn1c(=O)c(=O)n(C)c2cc(S(=O)(=O)Nc3ccc4c(c3)OCCO4)ccc21	-0.4%	-11%	-3	2%
COC(=O)c1ccc(COc2ccccc2/C=N/NS(=O)(=O)c2ccc(C)cc2)cc1	-1.0%	-6%	4	14%
O=C(Nc1cc(Cl)ccc1-n1cncn1)c1cncc(Br)c1	-0.2%	nt	nt	-1%
COCCNC(=O)C(C)OC(=O)c1nsc(Cl)c1Cl (stereo unspecified)	-1.3%	-6%	-2	32%
CCN1CCN(CC(=O)c2c[nH]c3ccc(C)cc23)CC1	-2.9%	-6%	6	3%
